KCNQ2 inh: KCNQ2 channel blockers in CHO-K1 cells – cell-based, FluxOR thallium flux, B-score, primary screen (AID 2156); B-score at 10 µM; 20 min; stronger effect = lower value; only compounds with negative scores are shown here; some inactives read as strong as hits; O88943; actives 1.1% (n = 310,000);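 active = fluorescence ratio B-score at most minus 3 library SDs, with starting brightness B-score within 2 library SDs, cut at about -5.5 in these data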
Target sequence (O88943 whole entry, looked up): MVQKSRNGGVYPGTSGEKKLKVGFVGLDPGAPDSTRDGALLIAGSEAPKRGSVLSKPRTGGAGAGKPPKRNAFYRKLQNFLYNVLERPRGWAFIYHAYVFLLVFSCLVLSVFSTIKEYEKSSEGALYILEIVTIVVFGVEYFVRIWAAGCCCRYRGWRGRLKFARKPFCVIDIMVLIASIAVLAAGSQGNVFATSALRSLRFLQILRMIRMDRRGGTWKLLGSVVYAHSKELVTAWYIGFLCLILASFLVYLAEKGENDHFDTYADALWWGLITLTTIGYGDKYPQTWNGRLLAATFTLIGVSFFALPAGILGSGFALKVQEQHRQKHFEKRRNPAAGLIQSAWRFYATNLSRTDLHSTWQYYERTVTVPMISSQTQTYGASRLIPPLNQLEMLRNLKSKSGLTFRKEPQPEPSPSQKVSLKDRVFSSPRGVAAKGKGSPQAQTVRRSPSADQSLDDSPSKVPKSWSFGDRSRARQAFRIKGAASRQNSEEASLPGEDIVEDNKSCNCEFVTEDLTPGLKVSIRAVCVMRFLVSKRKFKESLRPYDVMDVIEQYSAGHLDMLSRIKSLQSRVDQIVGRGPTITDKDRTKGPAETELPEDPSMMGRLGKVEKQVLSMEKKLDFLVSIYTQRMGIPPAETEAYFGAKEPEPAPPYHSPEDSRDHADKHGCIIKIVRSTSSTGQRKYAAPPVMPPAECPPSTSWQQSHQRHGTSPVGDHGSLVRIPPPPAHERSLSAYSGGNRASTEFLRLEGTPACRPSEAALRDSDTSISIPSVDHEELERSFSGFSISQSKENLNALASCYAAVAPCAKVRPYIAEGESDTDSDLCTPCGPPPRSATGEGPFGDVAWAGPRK
KCNQ2 inh baseline: recorded beside KCNQ2 inh, whose call it bears; B-score; measured here: initial fluorescence intensity artifact check;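 brightness before thallium and not channel activity; 0 = typical well and far values either way flag optical interference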
Starred values were filed as active, the others as inactive; i = inactive. Only part of the results is shown (hit frequency here may not be typical).

SMILES | KCNQ2 inh | KCNQ2 inh baseline
Cc1ccc(NC(=S)NCCN(C2CCCCC2)C2CCCC2)cc1C | i | -2.2
CCOc1ccc2c(=O)c(Oc3ccccc3OCC)coc2c1 | i | 0.02
O=C1CN(S(=O)(=O)c2cc(Cl)ccc2Cl)c2ccccc2N1 | i | 1.98
NS(=O)(=O)c1ccc(N/N=C/c2cn(-c3ccccc3)nc2-c2cccs2)cc1 | i | 1.92
COc1ccccc1NC(=O)CCN1C(=O)C2CC=C(Cl)CC2C1=O (stereo not drawn) | i | 0.97
CC(=O)Nc1ccc(S(=O)(=O)NCCNc2ccccc2[N+](=O)[O-])cc1 | i | 0.08
COc1cc2cc(C)nc(Cc3cccc4ccccc34)c2cc1OC | i | 0.36
CN(Cc1nc(-c2cccs2)no1)CC1(N2CCOCC2)CCCCC1 | i | 0.08
O=C1C2CC=CCC2C(=O)N1CNc1ccccc1 (stereo not drawn) | i | 0.17
COC(=O)CC1=C(C)C(=O)CC2C(C)(C)CCCC12C (stereo not drawn) | i | 0.02
O=C(O)CC1=C(O)C(=O)N(c2ccccc2)C1c1ccccc1 (stereo not drawn) | i | -0.61
CC1CCCC(NC(=O)COC(=O)CSc2ccc3ccccc3c2)C1C (stereo not drawn) | i | -1.73
CC(=O)N1CCN(c2nc(-c3ccco3)c3c(c2C#N)CC(C)(C)SC3)CC1 | i | 1.28
Cc1ccc(Nc2nc(CSc3nnc(-c4ccccc4)n3C)cs2)cc1 | i | -0.1
COc1ccccc1C(=O)NC(CCSC)C(=O)OCC(=O)c1ccc[nH]1 (stereo not drawn) | i | -0.8
OCC1(Cc2ccccc2C(F)(F)F)CCN(Cc2ccccc2)CC1 | i | -0.25
CCOC(=O)N1CCN(C(=O)Cc2ccccc2[N+](=O)[O-])CC1 | i | 0.79
Cc1ccc(/C=N/n2c(COc3ccccc3)n[nH]c2=S)o1 | i | -0.22
Cc1cccc(N2CCN(C(=O)c3ccc4nc(N5CCCCC5)sc4c3)CC2)c1C | i | 0.48
S=c1[nH]nc(-c2cccc(Cl)c2)n1Cc1ccccc1 | i | 2.36
Nc1ccc(C(=O)OCC(=O)c2cccc([N+](=O)[O-])c2)cc1 | i | 0.93
O=[N+]([O-])c1ccccc1/C=C/C=N/n1c(-c2ccc(Cl)cc2)n[nH]c1=S | i | -0.77
CCOC(=O)CN1C(=O)/C(=C/c2cccc(Br)c2)Oc2ccccc21 | i | -1.16
COc1ccccc1NC(=S)NC1CCCCCCCCCCC1 | i | -0.31
COc1ccc(OCc2nnc3n2N=C(c2ccc(C)cc2)CS3)cc1 | i | -3.44

Remaining list, next part
SMILES | KCNQ2 inh | KCNQ2 inh baseline
Cc1ccc(C(=O)NCC(=O)OCC(=O)NCCc2ccccc2)s1 | i | -0.01
CCOC(=O)c1cc2occc2n1Cc1ccc(F)cc1 | i | -1.79
Cc1ccccc1Oc1nnc(-c2cccs2)c2ccccc12 | i | -0.61
CCN(C(=O)COC(=O)CSc1ccc(C(N)=O)cc1[N+](=O)[O-])C1CCCCC1 | i | -1.12
CCCSC1=N/C(=C\c2ccc3c(c2)OCO3)C(=O)S1 | i | -0.2
CC(C)(C)C1CCC(OC(=O)CCC(=O)Nc2ccccc2)CC1 (stereo not drawn) | i | -0.77
CCC1(C)CC(c2nc(-c3ccc(OC)cc3)cs2)CCS1 (stereo not drawn) | i | 2.14
COC(=O)c1sc(N)c(C(=O)OC)c1COC(=O)C1CC(=O)N(Cc2ccco2)C1 (stereo not drawn) | i | -0.05
O=C(c1cccc(F)c1)N1CCN(S(=O)(=O)Cc2ccccc2)CC1 | i | 0.81
CC(C)CCN(C(=O)Cc1ccccc1F)c1c(N)n(Cc2ccccc2)c(=O)[nH]c1=O | i | -0.91
COc1ccc(C(C(C(=O)c2ccco2)N2CCOCC2)N2CCOCC2)cc1 (stereo not drawn) | i | 0.07
CC(=O)c1cccc(NC(=O)CN(Cc2ccccc2)S(C)(=O)=O)c1 | i | 0.27
Cc1cccc(S(=O)(=O)N2CCC(CO)(Cc3ccccc3)CC2)c1 | i | -0.02
CCN(CC(=O)NCc1cccs1)C(=O)c1ccc(NS(=O)(=O)c2ccc(C(C)=O)cc2)cc1 | i | -2.12
Cn1c(=O)n(CCc2ccccc2)c(=O)c2c1ncn2Cc1ccccc1 | i | 0.35
Cc1nc(=S)n(-c2ccccc2)[nH]1 | i | 0.83
CCCCCCCNC(=O)C1(CC2CC(c3ccc(Cl)cc3)=NO2)CCN(C(=O)c2cc(OCC)c(OCC)c(OCC)c2)CC1 (stereo not drawn) | i | -0.03
CC1(CCc2ccccc2)NC(=S)N(c2ccccc2)N1 (stereo not drawn) | i | 1.65
COc1cc(SC)ccc1C(=O)Nc1ccc2c(c1)CCC2 | i | -0.33
COCCCNC(=O)CN1C(=O)c2cccc3cccc1c23 | i | -0.3
COc1ccc(-c2cc(C)no2)cc1S(=O)(=O)N1CCN(c2ccccc2F)CC1 | i | 1.02
O=C(c1noc2c1CCCC2)N1CCN(c2ccccc2)CC1 | i | 0.73
Cc1cc(NC(=O)COC(=O)COc2ccc(Cl)cc2C)c([N+](=O)[O-])cc1C | i | 1.62
CC(C)[C@@H](C(=O)NC1CC1)N1C(=O)N2CCc3c([nH]c4ccccc34)[C@@]2(C)C1=O | i | -2.64
Cc1ccc(OCc2nnc(SCC(=O)N3C(C)CCCC3C)o2)cc1 (stereo not drawn) | i | 0.25

New compounds follow:
SMILES | KCNQ2 inh | KCNQ2 inh baseline
COc1ccc(CN2C(=O)c3cccc4cccc(c34)C2=O)cc1 | i | -1.4
CC(C)(C)S(=O)(=O)/C(C#N)=N/Nc1ccc(S(N)(=O)=O)cc1 | i | 0.13
OC(CSc1c(Cl)cccc1Cl)CN1CCN(c2ccccc2F)CC1 (stereo not drawn) | i | 0.24
COCCn1c(SCCN2CCOCC2)nc2c1c(=O)[nH]c(=O)n2C | i | 0.09
COCCn1c(SCC(=O)Nc2cccc(S(N)(=O)=O)c2)nc2cc(Cl)ccc2c1=O | i | 1.21
c1ccc2c(Cn3ccnc3)c[nH]c2c1 | i | 0.15
COc1cccc(C(C)N(C)Cc2nc(COc3ccccc3)no2)c1 (stereo not drawn) | i | -0.44
C[C@H](C(=O)O)c1n[nH]c(=O)c2ccccc12 | i | -0.75
O=C(c1cc2ccccc2o1)N1CCN(C/C=C/c2ccccc2)CC1 | i | -0.47
COc1ccc(/C=C/c2cc(C(=O)O)c3ccccc3n2)cc1 | i | -0.89
COc1ccc(C(CNC(=O)c2ccc(S(=O)(=O)Nc3ccccc3C)cc2)N2CCOCC2)cc1 (stereo not drawn) | i | 1.54
COc1ccc([C@@H]2[C@@H]3C(=O)N(C(C)(C)C)C(=O)[C@@H]3[C@]3(Cc4ccc(Cl)cc4)C(=O)N(c4cccc(C)c4)C(=O)N23)cc1 | i | 0.16
Cc1ccc(-n2cc(CNCCn3nc(C)cc3C)c(-c3ccc(F)cc3)n2)cc1 | i | 0.58
CCC(=O)N1CCN(c2ccc(NC(=O)c3c(F)c(F)c(OC)c(F)c3F)cc2)CC1 | i | 0.13
Cc1cc(NC(=O)CSCC(=O)N(C)Cc2ccc(Cl)c(Cl)c2)no1 | i | -0.01
COC(=O)C1=C(C)NC(C)=C(C(=O)OC)C1c1ccc(C)o1 | i | -1.35
COc1ccc(OCCCC(=O)NCCc2ccccc2)cc1 | i | 0.01
O=C(OCN1C(=O)c2ccccc2C1=O)c1cccc(OC(F)F)c1 | i | -0.77
O=C(Nc1cccc(-c2nc3cccnc3s2)c1)c1ccc(Cl)nc1 | i | 2.62
O=C(NC1CCCC1)C(c1ccncc1)N(Cc1cccs1)C(=O)c1csnn1 (stereo not drawn) | i | 0.16
N#CCCCSc1ncccc1-c1nc2ccccc2[nH]1 | i | -0.01
Cc1ccc(-n2nc(C)c3c(C)c(CCC(=O)Nc4ccc(CN5CCCC5)cc4)c(C)nc32)cc1 | -7.86* | -0.84*
O=C(NCCc1ccccc1)C1CCC(=O)N(Cc2cccc(C(F)(F)F)c2)C1 (stereo not drawn) | i | 0.02
CC1=CCC(C(=O)O)(C(=O)N/N=C/c2cccs2)C(c2ccc([N+](=O)[O-])cc2)C1 (stereo not drawn) | i | -1.46
CC1CCc2sc(C(=O)NCc3ccccn3)cc2C1 (stereo not drawn) | i | 1.62

Continuation:
SMILES | KCNQ2 inh | KCNQ2 inh baseline
O=C(NCCC1CCCCN1S(=O)(=O)c1ccccc1)C(=O)NCc1ccccn1 (stereo not drawn) | i | 0.06
O=C(Cc1ccc(Cl)cc1)Nc1ccc(-c2cc3ccccc3oc2=O)c(Cl)c1 | i | 1.49
CN1CC(c2ccccc2)C2(COc3ccccc3C2=O)C12C(=O)Nc1ccccc12 (stereo not drawn) | i | -0.11
O=C(NCCCN1CCOCC1)c1cnn2c(-c3ccccc3)cc(-c3ccccc3)nc12 | i | 0.49
O=C(NC1CCCc2ccccc21)N[C@@H](Cc1ccccc1)C(=O)O (stereo partly drawn) | i | 2.74
CCCCN(C(=O)c1oc2ccc(OCC)cc2c1C)c1c(N)n(CCCC)c(=O)[nH]c1=O | i | 0.31
Cc1ccc(-c2cc(C(F)F)n3ncc(C(=O)Nc4c(C)nn(Cc5ccccc5Cl)c4C)c3n2)cc1 | i | 1.84
C=CC[N+]1(CC(=O)NCc2ccc(NC(C)=O)cc2)CCOCC1 | i | 1.59
CS(=O)(=O)N(CC(=O)Nc1ccc2c(c1)OCO2)Cc1ccccc1 | i | -0.39
COc1cc(/C=C(\C#N)C(=O)NC(C)C)ccc1OCc1ccc(C(=O)O)cc1 | i | -0.98
O=C(O)c1ccc(NC(=O)c2ccccc2NC(=O)c2ccccc2Cl)cc1 | i | -0.81
CCCN1CCCc2cc(CN)ccc21 | i | 3.15
Cc1cc(C)n2nc(SCc3c(F)cccc3Cl)nc2n1 | i | -0.06
Cc1cc(C)cc(SCc2noc(C(=O)NCC3CC3)c2C(=O)NCC2CC2)c1 | i | 0.52
CC(C)(CN1CCN(c2ccccc2)CC1)NS(=O)(=O)c1ccccc1 | i | -0.03
COc1ccc(C2CC(c3cccs3)=NN2C(=O)CSc2nc(=O)n3ccccc3n2)cc1 (stereo not drawn) | i | -1.61
CCCCC1(Cc2cccc([N+](=O)[O-])c2)C(=O)N(c2ccccc2)N(c2ccccc2)C1=O | -6.93* | 1.07*
Cc1c(Br)cc(C(=O)NC2CCCCC2)c(C)c1C | i | -0.01
O=C(CCNC(=O)c1ccc(Br)cc1)NC1CCCc2ccccc21 (stereo not drawn) | i | 1.53
COC(=O)[C@H](C)NC(=O)Nc1ccc(Oc2ccccc2)cc1 | i | -1.22
COCc1cc(C)nc(OCC(=O)N/N=C/c2ccc(-c3cccc([N+](=O)[O-])c3)o2)c1C#N | i | -1.38
COc1ccc(-c2nc(CS(=O)CC(=O)NCCCN3CCOCC3)c(C)o2)cc1OC (stereo not drawn) | i | 3.22
O=C(Cn1nnc(-c2ccncc2)n1)Nc1ccc2c(c1)CCC2 | i | 0.39
CCc1ccc(S(=O)(=O)N2CCN(c3ccccc3OC)CC2)cc1 | i | 1.01
CCOC(=O)c1c(C#N)cnn1-c1ccc(C)cc1 | i | 0.72

Taken from above:
Reading for O=C(NC1CCCc2ccccc21)N[C@@H](Cc1ccccc1)C(=O)O (stereo partly drawn) in KCNQ2 inh baseline: 2.74
Reading for CCCCN(C(=O)c1oc2ccc(OCC)cc2c1C)c1c(N)n(CCCC)c(=O)[nH]c1=O in KCNQ2 inh baseline: 0.31
Reading for CC(C)(CN1CCN(c2ccccc2)CC1)NS(=O)(=O)c1ccccc1 in KCNQ2 inh baseline: -0.03
Reading for O=C(Cc1ccc(Cl)cc1)Nc1ccc(-c2cc3ccccc3oc2=O)c(Cl)c1 in KCNQ2 inh baseline: 1.49

The listing continues.
SMILES | KCNQ2 inh | KCNQ2 inh baseline
CCN(CC)S(=O)(=O)c1ccc(NC(=O)C2c3ccccc3Oc3ccccc32)cc1 | i | -0.18
CN(C)c1ccc(C=NC(CO)C(O)c2ccc([N+](=O)[O-])cc2)cc1 (stereo not drawn) | i | -0.41
Cc1ccnc(N=Cc2nc(-c3ccccc3Br)oc2O)c1 | i | 1.76
COC(=O)/C=C/c1ccc(OC(=O)c2ccncc2)cc1 | i | 1.17
Cc1cc(NC(=O)c2sc(Nc3ccc(F)cc3)nc2N)no1 | i | 0.2
COCCCNC(NC(=O)c1ccc(C)cc1)C(Cl)(Cl)Cl (stereo not drawn) | i | -1.33
CCOCc1c(C(=O)Nc2ccc(OC)nc2)oc2ccccc12 | i | 0.3
Cn1c(=O)c2c(-c3ccccc3)n(C3CCCCC3)cc2n(C)c1=O | i | 0.05
Cc1nc2sc(C(c3cccc(F)c3)N3CCN(C(=O)c4ccco4)CC3)c(O)n2n1 (stereo not drawn) | i | 1.21
CCS(=O)(=O)N1Cc2ccccc2CC1C(=O)Nc1nnc(SCc2c(Cl)cccc2Cl)s1 (stereo not drawn) | i | 0.5
Cc1ccc(/C=N/n2cnc3sc4c(c3c2=O)CCCC4)o1 | i | -0.02

A different layout for some results above:
compound: COc1ccc(/C=C/c2cc(C(=O)O)c3ccccc3n2)cc1
  KCNQ2 inh: i | KCNQ2 inh baseline: -0.89
compound: COc1ccc(C(CNC(=O)c2ccc(S(=O)(=O)Nc3ccccc3C)cc2)N2CCOCC2)cc1 (stereo not drawn)
  KCNQ2 inh: i | KCNQ2 inh baseline: 1.54
compound: COc1ccc([C@@H]2[C@@H]3C(=O)N(C(C)(C)C)C(=O)[C@@H]3[C@]3(Cc4ccc(Cl)cc4)C(=O)N(c4cccc(C)c4)C(=O)N23)cc1
  KCNQ2 inh: i | KCNQ2 inh baseline: 0.16
compound: Cc1ccc(-n2cc(CNCCn3nc(C)cc3C)c(-c3ccc(F)cc3)n2)cc1
  KCNQ2 inh: i | KCNQ2 inh baseline: 0.58

Five compounds drawn at random from the list so far:
SMILES | KCNQ2 inh | KCNQ2 inh baseline
Cc1ccc(/C=N/n2c(COc3ccccc3)n[nH]c2=S)o1 | i | -0.22
CCOc1ccc2c(=O)c(Oc3ccccc3OCC)coc2c1 | i | 0.02
O=C(Nc1cccc(-c2nc3cccnc3s2)c1)c1ccc(Cl)nc1 | i | 2.62
COCCCNC(NC(=O)c1ccc(C)cc1)C(Cl)(Cl)Cl (stereo not drawn) | i | -1.33
COC(=O)C1=C(C)NC(C)=C(C(=O)OC)C1c1ccc(C)o1 | i | -1.35

Assay outcomes: PubChem BioAssay, Johns Hopkins Ion Channel Center
